# Arbovirus inh = blocks arbovirus infection | arbovirus infection cell-based antiviral screen | inhibition, % at 10 µM | actives 0.37% (n = 200,000);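 active = inhibition from about 30%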;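 also: bluetongue infection of BSR cells; cell survival read as ATP light after 72 h; 0% = infected wells without compound and 100% = uninfected wells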
# Mtb growth = M. tuberculosis H37Rv growth inhibitors, H37Rv strain (AID 1626); actives 0.95% (n = 220,000); M. tuberculosis H37Rv growth inhibition; higher % means a stronger effect; one-dose inhibition, % at 10 µM; IC50 in µM for titrated hits;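 active = confirmed in a dose series; inconclusive = inhibition above 80% but not taken into the dose series; inactive = below 80% or under 30% at every dose of the series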;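 also: bacteria incubated seven days before Alamar blue readout; 0% = bacteria only wells and 100% = bacteria with antibiotic wells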
# Mtb betalactam = beta-lactam sensitization of Mtb H37Rv; AID 434955; actives 0.27% (n = 330,000); inhibition, % at 25 µM; M. tuberculosis H37Rv growth with meropenem, percent inhibition; hits of this screen are not shown here;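 active = about 74% or more and at least 40 points above the plate without the antibiotic, then above 30% in a dose series; inconclusive = first-round hits that could not be retested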;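 also: growth measured after seven days incubation then overnight dye step; 0% = bacteria only wells and 100% = bacteria with antibiotic; twin plates without the antibiotic show which effects depend on it; some results filed as inactive read as strong as hits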
# RecA intein inh = blocks M. tuberculosis RecA intein splicing. AID 2221. inhibition, %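 (about 9 µM by stock and volumes)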. cell-free RecA intein splicing, fluorescence. P9WHJ3. actives 0.75% (n = 290,000); in the data active = inhibition above about 30%; inconclusive = no clear call, values can overlap the other calls;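 also: 0% = vehicle wells and 100% = reference inhibitor control wells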
# Target sequence (P9WHJ3 whole entry, looked up): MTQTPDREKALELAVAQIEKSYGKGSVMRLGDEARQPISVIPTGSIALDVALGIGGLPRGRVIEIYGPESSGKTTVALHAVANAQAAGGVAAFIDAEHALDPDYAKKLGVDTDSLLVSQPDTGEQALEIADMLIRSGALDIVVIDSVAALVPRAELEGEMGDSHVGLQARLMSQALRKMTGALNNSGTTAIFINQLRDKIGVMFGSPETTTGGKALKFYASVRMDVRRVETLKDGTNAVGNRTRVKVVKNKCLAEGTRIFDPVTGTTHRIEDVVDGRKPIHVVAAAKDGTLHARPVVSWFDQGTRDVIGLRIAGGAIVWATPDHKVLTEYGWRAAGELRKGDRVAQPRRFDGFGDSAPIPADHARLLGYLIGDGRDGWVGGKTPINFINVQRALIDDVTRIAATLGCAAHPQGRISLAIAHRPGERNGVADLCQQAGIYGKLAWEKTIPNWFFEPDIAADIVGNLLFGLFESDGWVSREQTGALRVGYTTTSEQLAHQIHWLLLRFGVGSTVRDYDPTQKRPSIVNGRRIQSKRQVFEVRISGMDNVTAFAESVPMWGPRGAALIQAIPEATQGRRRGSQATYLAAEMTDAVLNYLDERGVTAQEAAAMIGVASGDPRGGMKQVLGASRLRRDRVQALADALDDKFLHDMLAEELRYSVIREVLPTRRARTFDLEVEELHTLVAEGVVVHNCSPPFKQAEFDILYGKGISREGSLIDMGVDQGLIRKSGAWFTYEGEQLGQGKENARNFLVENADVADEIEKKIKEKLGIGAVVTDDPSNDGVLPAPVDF
# YopH PTP inh = blocks Yersinia enterocolitica YopH tyrosine phosphatase. fluorescence Ex485/Em525. inhibition, %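 (about 10 µM by stock and volumes)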. actives 0.16% (n = 140,000);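 active = inhibition of 50% or more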;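 also: controls were vehicle for no effect and minimum signal wells for full effect; inactives centre near -20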
# Arbovirus inh repeat = second read-out of Arbovirus inh, no call of its own (marks repeat the call); inhibition, %; measured here: 10K subset replicate screen; many hits read low in the repeat;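 first of two repeat runs on a subset; 0% = infected and 100% = uninfected wells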
# * hit, by the source's call; ? = inconclusive; / = not tested or not shown.
# Sample of the layout:
SMILES,Arbovirus inh,Mtb growth,Mtb betalactam,RecA intein inh,YopH PTP inh,others
COc1ccc(-c2onc(C)c2-c2cnn(-c3ccccc3)c2)c(O)c1,10,-14%,-2,-1.4,/,
Cc1cc(=O)oc2c(C)c(OCC(=O)NCc3ccccn3)ccc12,/,/,0,-6.3,/,
NS(=O)(=O)c1ccc(NC(=O)c2ccccc2C(=O)N2CCCCC2)cc1,1,-5%,-1,-1.0,-29,
Cc1ccc(NC(=O)CN2CCC(Cc3ccccc3)CC2)cc1S(=O)(=O)N(C)C,13,2%,-3,3.1,/,
CN(CCC#N)C(=O)CSc1ncnc2sc(-c3ccccc3)cc12,-4,-2%,-4,-1.7,-10,

# Results, from the first entry:
SMILES,Arbovirus inh,Mtb growth,Mtb betalactam,RecA intein inh,YopH PTP inh,others
COc1ccc(-c2onc(C)c2-c2cnn(-c3ccccc3)c2)c(O)c1,10,-14%,-2,-1.4,/,
Cc1cc(=O)oc2c(C)c(OCC(=O)NCc3ccccn3)ccc12,/,/,0,-6.3,/,
NS(=O)(=O)c1ccc(NC(=O)c2ccccc2C(=O)N2CCCCC2)cc1,1,-5%,-1,-1.0,-29,
Cc1ccc(NC(=O)CN2CCC(Cc3ccccc3)CC2)cc1S(=O)(=O)N(C)C,13,2%,-3,3.1,/,
CN(CCC#N)C(=O)CSc1ncnc2sc(-c3ccccc3)cc12,-4,-2%,-4,-1.7,-10,
Cc1ccc(Cc2c(C)nc3nc(SCC(=O)NCc4ccco4)nn3c2C)cc1,-4,0%,-2,4.7,-5,Arbovirus inh repeat=-7
OCc1nc2ccccc2n1CCCOc1ccc(Br)cc1,11,11%,97,7.1,11,
COC(=O)Cc1c(O)ccn(CCc2c[nH]c3ccc(OC)cc23)c1=O,4,2%,-1,-0.4,/,
CC(=O)Oc1ccc(C(=O)Nc2cc(C)ccc2NC(=O)COc2ccccc2)cc1,-6,/,-1,0.2,-6,
Cc1ccc(-n2c(=O)[nH]c3ncccc3c2=O)cc1,13,/,2,-5.1,/,
O=C(COc1ccc2c3c(c(=O)oc2c1)CCCC3)N1C[C@H]2C[C@@H](C1)c1cccc(=O)n1C2,/,/,-7,0.0,/,
COc1ccc(/C=N\NC(=O)c2ccc(-c3ccccc3)cc2)cc1COC(C)=O,/,/,0,-1.0,/,
Cc1ccc(C)c(Cn2nnc3c(=O)[nH]c(C4CCCN(C(=O)C5CCC5)C4)nc32)c1 (stereo unspecified),-34,3%,2,3.2,-33,
CC(/C=C/c1ccccc1)=N\NC(=O)CSc1ccccn1,-6,7%,3,1.4,-4,
O=C(O)C1CCCN1S(=O)(=O)c1ccc(Cl)c(Cl)c1 (stereo unspecified),9,-2%,3,3.9,-30,Arbovirus inh repeat=1
N#CC1=C(c2ccccc2)/C(=C/c2ccccc2)OC1=O,-15,18µM*,96,-2.3,-15,
CC(C)CC(=O)NN1CCCCC1,-2,1%,-2,0.4,2,
COc1ccc(-n2c(SCC(=O)Nc3ccc(Br)cc3)nc(O)cc2=O)cc1,/,-5%,5,2.3,/,
COc1ccc(Br)cc1/C=C/C(=O)c1ccc(NC(C)=O)cc1,-23,?,17,/,6,
CC(=O)N1CCC(C(=O)Nc2ccc(S(=O)(=O)N3CCC(C)CC3)cc2)CC1,/,/,-9,0.4,/,
CCNC(=O)c1ccccc1SCc1ccccc1,-3,-1%,3,-1.6,/,
Cc1cccc(C)c1NS(=O)(=O)c1ccc2c(c1)NC(=O)CO2,-1,0%,3,2.4,/,
C=CCn1c2ccccc2n2nc(C)c(=O)nc12,3,-1%,-2,-5.8,2,
CCOc1ccccc1NC(=O)NNS(=O)(=O)c1cc(C)ccc1C,/,/,5,-3.9,/,
OC1OC[C@@H](O)[C@H](O)[C@H]1O (stereo partly specified),/,/,-4,1.8,/,
Cc1cc(C)n(-c2ccc(Oc3ccccc3)c(S(=O)(=O)O)c2)n1,12,-8%,-8,-2.5,/,
COc1cccc2cc(C(=O)n3ccc(C)n3)c(=O)oc12,0,-7%,11,-4.5,-22,
COc1cccc(NC(=O)CSc2nnc(Cc3cccn3C)n2-c2ccc(F)cc2)c1,-10,4%,-4,2.7,-18,Arbovirus inh repeat=-5
COc1cc(OC)cc(C(=O)N[C@H](C(=O)Nc2ccc(NC(C)=O)cc2)C(C)C)c1,-6,5%,-10,1.4,/,
Cc1c(Cl)c(C(=O)Nc2nc3ccccc3n2CCN2CCCCC2)nn1C,17,/,0,2.2,-30,
Cc1ccc(S(=O)(=O)N2CCC(C(=O)OCC(=O)N3CC(C)CC(C)C3)CC2)cc1C (stereo unspecified),/,/,6,1.2,/,
O=C(NCCc1ccccc1Cl)C1CCC(=O)N(Cc2ccc(Cl)cc2)C1 (stereo unspecified),/,/,?,1.2,/,
O=C(CCc1ccccc1)c1c(O)cc(O)cc1O,/,-9%,-2,2.9,/,
CC(C(=O)Nc1ccccc1)N1C(=O)c2ccccc2C1=O (stereo unspecified),4,-3%,-5,-2.8,/,
CC1(OC(=O)c2ccc(Cl)nc2)C(=O)C=C2C=C(c3ccsc3)OC=C2C1=O (stereo unspecified),/,-7%,-2,-2.7,/,
COc1ccc(C(=O)Cn2cnc3ccc(Cl)cc3c2=O)cc1F,/,/,5,1.2,/,
O=C(O)Cn1ccc2ccccc21,/,-5%,-3,0.9,/,
O=C(Cn1c(NCCCO)nc2ccccc21)c1ccc(Br)cc1,13,-10%,-2,0.0,-39,
Cc1ccc(C(=O)N2CCN(c3ccc([N+](=O)[O-])c(NCc4ccco4)c3)CC2)cc1,12,0%,25,5.3,-21,
Cc1ccc(-c2nnc(N3CCCCC3)c3ccccc23)cc1S(=O)(=O)N1CCN(C)CC1,-1,1%,15,0.6,-15,Arbovirus inh repeat=-11
COc1ccc(C2CC(=O)c3cnc(N4CCN(Cc5ccccc5)CC4)nc3C2)cc1 (stereo unspecified),-1,25%,79,3.6,15,
COC(=O)c1cc(C(=O)OCC(=O)N(C)c2ccccc2)cc([N+](=O)[O-])c1,/,/,9,0.8,/,
O=C(Cc1c(Cl)cccc1Cl)OCc1ccccn1,/,/,-2,4.5,/,
COCC(=O)NC1CC2CCCC(C1)N2Cc1ccccc1 (stereo unspecified),3,-9%,-9,2.1,-37,
CCN(CC)c1ccc(NC(=O)C2CCCN(S(=O)(=O)c3cnc[nH]3)C2)c(C)c1 (stereo unspecified),5,-10%,0,/,-44,
CCOC(=O)CC1CCCCN1Cc1nc(-c2ccc(F)c(OC)c2)oc1C (stereo unspecified),9,-7%,-4,-1.5,/,
COc1cccc(C(=O)NC(C)C(c2cccs2)N2CCN(C)CC2)c1 (stereo unspecified),2,-5%,1,0.0,-4,
CCN1CCN(C2=C(NS(=O)(=O)c3ccccc3)C(=O)c3ccccc3C2=O)CC1,/,/,-4,3.6,/,
C=CCc1cc(OC)ccc1OCCN(C)Cc1ccccc1,4,7%,-3,4.8,/,
CCc1cc2c(NCCO)ncnc2s1,3,-6%,-15,7.3,-31,
CC(=O)SCC(=O)N=c1sc2cc(F)ccc2n1C,-4,-1%,3,4.4,-5,
O=C(O)Cn1cnc2c(oc3ccccc32)c1=O,/,-23%,-1,/,/,
Cc1ccc(O)c(C=Nc2cc(C)ccc2O)c1,-4,67%,-8,-4.3,-25,
CCCCSc1nnc(-c2ccc(C)cc2)n1C,5,-3%,3,2.3,-9,
CC(C)(C)OC(=O)N1Cc2cc3ccccc3nc2C1CO (stereo unspecified),/,-7%,0,-0.9,/,
Cc1ccc(S(=O)(=O)NCCc2ccc(S(N)(=O)=O)cc2)cc1,0,2%,-1,1.2,-1,
COc1ccc(NC(=O)CC2Oc3ccccc3NC2=O)c(OC)c1 (stereo unspecified),/,/,3,-1.4,/,
O=C(NC(=S)N1CCN(c2ccccn2)CC1)c1ccccc1,2,-9%,4,-2.6,-23,
CCCc1cc(=O)[nH]c(SCC(=O)N2CCN(c3ccccc3)CC2)n1,12,-2%,-5,-0.3,-11,
COc1cc2c(cc1OC)-c1c(OC)c(OC)cc3ccnc(c13)C2=O,-40,/,-7,11,-6,

# Remaining list, next part
SMILES,Arbovirus inh,Mtb growth,Mtb betalactam,RecA intein inh,YopH PTP inh,others
Cc1ccc(C(=O)c2ncc[nH]2)cc1,/,/,-5,-2.0,/,
Cn1ccnc1SCC(=O)Nc1ccccc1,18,-6%,-6,/,-97,
COCCN1Cc2cccc(C(=O)NC(C)c3cccs3)c2C1=O (stereo unspecified),-1,1%,-2,-4.1,-15,
COc1ccc(-c2ccc3oc(-c4ccc(OC)cc4)c(-c4ccc(OC)cc4)c3c2)cc1,/,-2%,-6,-0.7,/,
CCOC(=O)C1CCN(C(=O)CCNS(=O)(=O)c2ccc3c(c2)CCN3C(=O)CC)CC1,/,/,-4,-3.2,/,
CCC(C)NC(=O)CNC(=O)c1nn(-c2ccc(OC)cc2OC)c(=O)c2ccccc12 (stereo unspecified),/,/,5,-2.0,/,
CCOC(=O)c1nn(-c2ccccc2C)c(=O)cc1OCC(=O)Nc1cccc(OC)c1,/,/,3,-0.8,/,
Cc1ccc(NC(=O)C(=O)NCC2CCN(C(=O)c3cccc([N+](=O)[O-])c3)CC2)cc1,-16,-7%,3,/,/,
CCN1CCN(S(=O)(=O)Cc2ccccc2)CC1,9,-11%,4,-0.6,-6,
CCOc1ccccc1N(C)S(=O)(=O)c1ccc2c(c1)N(C(C)=O)CCO2,/,/,-5,-3.9,/,
O=C(Nc1cccc(C(F)(F)F)c1)n1cc(-c2ccccn2)c(N2CCOCC2)n1,-12,2%,-2,-2.1,/,
CN(C)C(=O)N1CCCC(C(=O)NCc2ccc(F)cc2Cl)C1 (stereo unspecified),4,-9%,2,2.2,-50,
Cc1cc2c(cc1S(=O)(=O)N1CCCCC1)OCC(=O)N2,/,/,4,-3.4,/,
Cc1cc(NC(=O)CN2C(=O)CCSc3ccccc32)no1,0,-5%,10,9.8,/,
O=C(O)CSCC(=O)Nc1ccc(C(F)(F)F)cc1,4,-8%,6,-2.2,/,
Cc1c(-c2ccncc2)oc2ccc(Br)cc2c1=O,-12,1%,82,0.9,/,
NC(=S)NC1CCS(=O)(=O)C1 (stereo unspecified),13,-6%,11,-2.1,/,
CC(C)CC(=O)Nc1ccc(Nc2ccccc2)cc1,-19,-4%,-8,2.9,10,
O=C(CCc1ccccc1)Nc1ccccc1C(=O)N1CCOCC1,-2,7%,-4,-0.7,/,
CCNc1nc(NC(C)C)nc(Nn2cnnc2)n1,4,-6%,0,-0.9,25,
CC1=CN2C(=NC(=O)CC2(C)C(=O)N(CC(=O)NC2CCCC2)Cc2ccccc2)C=C1 (stereo unspecified),/,/,-5,-2.6,/,
O=C(Cn1cnc2ccccc2c1=O)NC1CCCc2ccccc21 (stereo unspecified),-6,-5%,-10,1.3,-33,
O=c1c2c3c(sc2nc2n1N=C(c1cccs1)CS2)CCCC3,0,3%,-11,0.1,1,
CC(C)c1nc(CN2CCCCC2)cc(=O)[nH]1,5,2%,-2,4.9,/,
CCN(CC)c1ccc(NC(=O)CSc2ccsc2[N+](=O)[O-])c(C)c1,-1,4%,7,-2.8,-20,
COC(=O)N/N=C/C1=CCC2CC1C2(C)C (stereo unspecified),2,1%,-2,-2.2,/,
COc1ccc(N/N=C2/CCCCC2=O)cc1,-32,?,0,-4.2,0,
CCCOP(=O)(c1ccc(N(C)C)cc1)C(Nc1ccccc1)c1ccc(C)cc1 (stereo unspecified),/,-7%,1,0.1,/,
Oc1ccccc1/C=N/N1CCCCC1,1,-1%,-8,0.3,/,
C=CCN1C(=O)/C(=C/c2ccc3c(c2)CCCN3CCC)C(=O)NC1=S,-18,67%,17,-4.5,28,
O=C(CC1SC(=O)N(c2ccccc2)C1=O)Nc1cccc2ccccc12 (stereo unspecified),/,0%,-1,4.7,/,
Cc1ccc([N+](=O)[O-])cc1NC(=O)CCSc1ccc(Cl)cc1,-2,-7%,-8,5.3,-35,
O=C(C1=C(O)C(=O)N(CCN2CCOCC2)C1c1ccc([N+](=O)[O-])cc1)c1cc2ccccc2o1 (stereo unspecified),/,/,-6,-2.7,/,
COCCn1c(-c2ccco2)csc1=Nc1cccnc1,-10,-10%,-4,5.3,10,

# Of the compounds above, 4 have a COOH group:
SMILES,Arbovirus inh,Mtb growth,Mtb betalactam,RecA intein inh,YopH PTP inh,others
O=C(O)C1CCCN1S(=O)(=O)c1ccc(Cl)c(Cl)c1 (stereo unspecified),9,-2%,3,3.9,-30,Arbovirus inh repeat=1
O=C(O)Cn1ccc2ccccc21,/,-5%,-3,0.9,/,
O=C(O)Cn1cnc2c(oc3ccccc32)c1=O,/,-23%,-1,/,/,
O=C(O)CSCC(=O)Nc1ccc(C(F)(F)F)cc1,4,-8%,6,-2.2,/,

# An excerpt; the hit share may differ from the screen's.
